# HCV core dimer: inhibitors of HCV core protein dimerization, primary screen, biochemical, TR-FRET, high-throughput; TR-FRET GST/Flag-core106 dimerization, 1536-well; inhibition, % at 5 µM; 300,000 compounds, 0.33% hits; AID 1899, 2009;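 active = inhibition above the mean of all tested compounds plus 3 SD, set per screening campaign, cut at about 45% in these data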
#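 Material: GST/Flag-tagged HCV core106 proteins. Incubation: 4 h, 22.5 °C incubation. Read-out basis: inhibition (%) from 671 over 617 nm ratio. Measured by: TR-FRET, excitation 340 nm, emission 617 and 671 nm.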
# TPT1 inh: Candida albicans TPT1 enzyme inhibitors, primary screen, biochemical, fluorescence polarization; tRNA 2'-phosphotransferase TPT1 (Candida albicans SC5314); AID 1962, 2009; 300,000 compounds, 0.81% hits; recombinant caTPT1, FP RNA substrate dephosphorylation; inhibition, % at 5 µM;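 active = inhibition above the mean of all tested compounds plus 3 SD, set per screening campaign, cut at about 24% in these data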;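 note: plate controls were DMSO alone for no effect and ferristatin control at 100 nM for full effect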
# PP5 primary: PP5 phosphatase inhibitors, primary screen, biochemical, fluorescence. Serine/threonine-protein phosphatase 5 (Homo sapiens), P53041. inhibition, % at 6.7 µM. purified PP5c, OMFP substrate fluorescence. 320,000 compounds, 0.18% hits;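 active = inhibition above the campaign's mean inhibition across all tested compounds plus 3 SD, cut at about 9.5% in these data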;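 note: 0% = DMSO only and 100% = 100 µM cantharidin control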
# PP1 inh: PP1-alpha phosphatase inhibitors, primary screen, counter-screen for PP5 inhibitor project, biochemical, fluorescence, OMFP substrate, single point. Serine/threonine-protein phosphatase PP1-alpha catalytic subunit (Homo sapiens), P62136. purified PP1alpha. inhibition, % at 6.7 µM. 320,000 compounds, 0.9% hits. AID 2235, 2010;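 active = inhibition above the mean inhibition of all tested compounds plus 3 SD, computed separately for each screening campaign, cut at about 15% in these data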
# JMJD2C inh: inhibitors of GASC-1 histone demethylase, primary screen, biochemical, fluorescence, DELFIA europium; Lysine-specific demethylase 4C (Homo sapiens), Q9H3R0; inhibition, % at 2.35 µM; GST-JMJD2C(1-420) H3K9me3 demethylation; 330,000 compounds, 0.069% hits;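 active = more than half of a compound's replicate wells show inhibition beyond 50%, single wells judged on their own value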;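 note: signal counts dimethyl H3K9 product captured on neutravidin plate; 0% = median of DMSO wells and 100% = 0.3 times that DMSO median; strong numbers were not always called active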
# Target sequence (Q9H3R0 1-420 limits assumed): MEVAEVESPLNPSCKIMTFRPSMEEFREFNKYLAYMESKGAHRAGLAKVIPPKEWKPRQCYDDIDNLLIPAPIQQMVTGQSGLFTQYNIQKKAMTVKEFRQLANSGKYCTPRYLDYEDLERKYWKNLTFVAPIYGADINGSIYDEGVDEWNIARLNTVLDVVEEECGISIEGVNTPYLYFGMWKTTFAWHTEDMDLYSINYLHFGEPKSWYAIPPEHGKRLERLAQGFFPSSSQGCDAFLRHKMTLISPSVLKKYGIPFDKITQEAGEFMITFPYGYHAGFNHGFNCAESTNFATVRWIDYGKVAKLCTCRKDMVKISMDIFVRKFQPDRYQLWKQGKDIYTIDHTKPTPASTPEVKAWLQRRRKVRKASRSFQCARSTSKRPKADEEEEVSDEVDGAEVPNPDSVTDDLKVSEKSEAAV
# Efflux pump mplx: inhibitors of Candida efflux pumps in yeast, primary screen, S. cerevisiae, Nile Red, multiplex; S. cerevisiae Candida pump triplex; inhibition, % at 10 µM; 330,000 compounds, 0.44% hits; AID 485275, 2010;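 active = plate passing quality check with inhibition over a set limit, or well fluorescence over plate mean plus 4 SD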;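 note: Nile Red retained in pooled yeast measured as flow cytometry median fluorescence; 0% = buffer negative control and 100% = Enniatin B positive control; higher means more Nile Red kept so more efflux inhibition; some compounds called inactive have numbers as strong as hits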
# LYPLA2 inh: LYPLA2 inhibitors, primary screen, counter-screen for PME1 inhibitor project, biochemical, fluorescence polarization, FP-Rh probe ABPP | Acyl-protein thioesterase 2 (Homo sapiens), O95372 | recombinant LYPLA2 | inhibition, % at 5.9 µM | 320,000 compounds, 0.38% hits | AID 2177, 2009;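 active = inhibition above the screen-wide mean plus 3 SD, limit set per campaign, cut at about 26% in these data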;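 note: 0% = LYPLA2 with DMSO and 100% = wells lacking LYPLA2 enzyme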
# Target sequence (O95372 whole entry, looked up): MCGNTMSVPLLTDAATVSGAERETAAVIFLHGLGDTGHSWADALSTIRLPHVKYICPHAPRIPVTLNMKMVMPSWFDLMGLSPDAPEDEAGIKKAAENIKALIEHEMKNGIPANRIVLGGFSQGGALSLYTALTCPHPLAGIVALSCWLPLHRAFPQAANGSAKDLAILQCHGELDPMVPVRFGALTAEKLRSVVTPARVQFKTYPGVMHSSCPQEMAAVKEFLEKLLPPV
# CTSL1 counter: Fasciola hepatica cathepsin L1 inhibitors, primary screen, counter-screen for PFM18AAP inhibitor project, biochemical, QFRET, fluorogenic peptide substrate; recombinant F. hepatica cathepsin L1, Z-Leu-Arg-MCA fluorescence; inhibition, % at 5.96 µM; 300,000 compounds, 0.49% hits; AID 1906, 2009;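 active = inhibition above the mean of all tested compounds plus 3 SD, set per screening campaign, cut at about 17% in these data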;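 note: 0% = plate median of test compound wells and 100% = 1 µM Z-Phe-Ala-diazomethylketone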
# Active calls of the source: *; nt = no result given; & = joins results of further samples. Only part of the results is shown, so the mix of outcomes need not match the whole.
item	structure	JMJD2C inh	TPT1 inh	CTSL1 counter	LYPLA2 inh
1	Cc1cc(S(=O)(=O)N2CCN(CC(=O)NCCc3cccs3)CC2)ccc1Br	-6	nt	nt	0
2	C#Cc1cccc(C(=O)N2CCCC(Nc3cccc(F)c3)C2)c1 (stereo unspecified)	-6	0	1	-4
3	O=C(COc1ccccc1Cl)NC(=O)NC1CCCC1	22	-1	0	-3
4	CCOc1ccc(OCC)c(NC(=O)CN2CCN(c3ccc(C)cc3C)CC2)c1	0	2	2	6
5	Cc1c(OC(C)C(=O)NC2CC(C)(C)NC(C)(C)C2)ccc2c3c(c(=O)oc12)CCC3 (stereo unspecified)	20	-2	-2	0
6	N=c1n(CCN2CCOCC2)c2ccccc2n1CC(=O)c1ccc(Cl)c(Cl)c1	12	-3	4	-3
7	COCC(C)NS(=O)(=O)c1ccc(NC(=O)C(Cc2ccccc2)NC(N)=O)cc1 (stereo unspecified)	-3	-4	-3	6
8	Cc1cc(SCC(=O)N2CCC(c3noc4ccc(F)cc34)CC2)nc2ccccc12	-1	-2	1	3
9	COc1ccc(OC)c(S(=O)(=O)NCCc2ccccc2)c1	-1	2	-4	5
10	CCOC(=O)c1[nH]c2cc3c(cc2c1NC(=O)CN1CCc2ccccc2C1)OCO3	10	-2	3	1

item	PP5 primary	HCV core dimer	Efflux pump mplx	PP1 inh
1	4.2	nt	-0.3	-2
2	0.7	-3	-0.6	-2
3	2.9	-2	0.3	-3
4	3.7	6	0.1	0
5	-0.1	7	-0.1	-4
6	8.1	5	0.0	5
7	0.8	-2	0.0	-6
8	1.1	12	0.0	1
9	3.3	4	0.0	2
10	6.3	2	0.1	1

# More results:
item	structure	JMJD2C inh	TPT1 inh	CTSL1 counter	LYPLA2 inh
11	Cc1cccc(N2CCN(C(=O)C3CC(=O)N(C4CCCC4)C3)CC2)c1C (stereo unspecified)	-3	-1	-5	3
12	N=C1c2c(cc(=O)n3c2[nH]c2ccccc23)CN1CCN1CCOCC1	5	6	3	1
13	CC(=O)Nc1cc(S(=O)(=O)C(F)(F)F)ccc1Cl	3	-3	1	6
14	COC(=O)c1sccc1-c1ccc(/C=N/OC(=O)c2cccs2)o1	-2	-1	6	3
15	Cc1nnc(SCC(=O)N2CCC(c3noc4ccc(F)cc34)CC2)s1	-4	1	0	3
16	Cn1c(NCc2ccco2)nc2c1c(=O)n(Cc1ccc(Br)cc1)c(=O)n2C	33	0	-1	10
17	Cc1ccc(S(=O)(=O)Nc2nc3ccccc3nc2NCc2ccco2)cc1C	0	-2	6	8
18	CC(C)C(c1nnnn1C1CCCCC1)N1CCc2ccccc2C1 (stereo unspecified)	1	1	0	-3
19	COc1cc(C2c3c(-c4cc(Cl)c(C)cc4O)n[nH]c3C(=O)N2Cc2cccnc2)ccc1O (stereo unspecified)	6&-18	2	3	-10
20	COC(=O)c1cc2ccsc2n1CC(=O)N(C)c1ccccc1	4	0	3	3

item	PP5 primary	HCV core dimer	Efflux pump mplx	PP1 inh
11	3.3	-2	0.1	-1
12	0.1	-1	0.1	6
13	2.9	5	0.1	0
14	2.1	-1	0.2	1
15	1.7	4	-0.1	-6
16	1.1	2	-0.1	1
17	1.0	17	0.0	2
18	0.9	5	-0.1	0
19	3.8	7	0.0	10
20	1.6	2	0.0	1

# Continued.
item	structure	JMJD2C inh	TPT1 inh	CTSL1 counter	LYPLA2 inh
21	CCCc1cc2c(=O)c(-c3ccccn3)c(C)oc2cc1O	0	-1	-4	5
22	CCOC(=O)/C(=N\O)C1=NC(C)(C)Cc2ccccc21	7	1	-6	-5
23	Cc1ccn2c(=O)nc(SCC(=O)NC3CCCC3)nc2c1	-5	-1	3	6
24	CC1CCN(c2ccccc2NC(=S)NC(=O)c2cccs2)CC1	2	-2	2	-10

item	PP5 primary	HCV core dimer	Efflux pump mplx	PP1 inh
21	2.5	-8	-0.1	0
22	1.8	3	0.0	-1
23	-0.2	3	0.1	-4
24	-0.2	9	-0.2	1

# Entries from the list above that have nitrogen in an aromatic ring, in the order listed:
item	structure	JMJD2C inh	TPT1 inh	CTSL1 counter	LYPLA2 inh
6	N=c1n(CCN2CCOCC2)c2ccccc2n1CC(=O)c1ccc(Cl)c(Cl)c1	12	-3	4	-3
8	Cc1cc(SCC(=O)N2CCC(c3noc4ccc(F)cc34)CC2)nc2ccccc12	-1	-2	1	3
10	CCOC(=O)c1[nH]c2cc3c(cc2c1NC(=O)CN1CCc2ccccc2C1)OCO3	10	-2	3	1
12	N=C1c2c(cc(=O)n3c2[nH]c2ccccc23)CN1CCN1CCOCC1	5	6	3	1
15	Cc1nnc(SCC(=O)N2CCC(c3noc4ccc(F)cc34)CC2)s1	-4	1	0	3
16	Cn1c(NCc2ccco2)nc2c1c(=O)n(Cc1ccc(Br)cc1)c(=O)n2C	33	0	-1	10
17	Cc1ccc(S(=O)(=O)Nc2nc3ccccc3nc2NCc2ccco2)cc1C	0	-2	6	8
18	CC(C)C(c1nnnn1C1CCCCC1)N1CCc2ccccc2C1 (stereo unspecified)	1	1	0	-3
19	COc1cc(C2c3c(-c4cc(Cl)c(C)cc4O)n[nH]c3C(=O)N2Cc2cccnc2)ccc1O (stereo unspecified)	6&-18	2	3	-10
20	COC(=O)c1cc2ccsc2n1CC(=O)N(C)c1ccccc1	4	0	3	3
21	CCCc1cc2c(=O)c(-c3ccccn3)c(C)oc2cc1O	0	-1	-4	5
23	Cc1ccn2c(=O)nc(SCC(=O)NC3CCCC3)nc2c1	-5	-1	3	6

item	PP5 primary	HCV core dimer	Efflux pump mplx	PP1 inh
6	8.1	5	0.0	5
8	1.1	12	0.0	1
10	6.3	2	0.1	1
12	0.1	-1	0.1	6
15	1.7	4	-0.1	-6
16	1.1	2	-0.1	1
17	1.0	17	0.0	2
18	0.9	5	-0.1	0
19	3.8	7	0.0	10
20	1.6	2	0.0	1
21	2.5	-8	-0.1	0
23	-0.2	3	0.1	-4

# High-throughput results deposited in PubChem BioAssay by several laboratories.
